Biofilm kill mix = clotrimazole potentiators killing C. albicans biofilm, primary screen, 4-compound mixtures. 0.02% of 120,000 active. C. albicans biofilm persisters + clotrimazole, fluorescence viability; primary screen in compound mixtures of four per well. inhibition, % at 7.6 µM;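 active = inhibition above 30.3% in the primary screen of four-compound pools, then above 30% when the compound was retested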;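 note: compounds exposed to preformed 24 h biofilms for 48 h; the number belongs to the whole pool; some results filed as inactive read as strong as hits; inactives centre near 12; 0% = biofilm with clotrimazole alone and 100% = kill control; retested singly at about 60 µM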
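Incubation: 24 h biofilm formation, then 48 h compound exposure, 37 °C | Material: C. albicans biofilms | Buffer or medium: RPMI/MOPS medium, pH 7.0 | Measured by: 2-h Alamar Blue fluorescence, 535/590 nm excitation/emission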
An asterisk follows results filed as active. This is a subset, so the mix of outcomes need not match the whole.

SMILES | Biofilm kill mix
CCOc1ncccc1C(=O)OCc1ccc([N+](=O)[O-])cc1 | 11.8
COc1ccc(N2CCN(C(CNS(C)(=O)=O)c3ccco3)CC2)cc1 (configuration not stated) | 10.4
O=C(CSc1ccccc1F)NC(=O)NCc1ccco1 | 13.3
CC(C)(C)C1(O)CC(C(F)(F)F)=NN1C(=O)CCCc1ccccc1 (configuration not stated) | -3.0
Cc1cc(-c2csc(N)n2)c(C)n1Cc1ccco1 | 7.6
CCOC(=O)CCc1c(C)nc(-n2[nH]c(C)c(CCO)c2=O)[nH]c1=O | 8.2
CCCC(=O)N1CCN(c2ccc(NC(=O)c3ccc([N+](=O)[O-])o3)cc2Cl)CC1 | -9.7
CC(NC(=O)CCC(=O)c1ccc(F)cc1)C1CC2CCC1C2 (configuration not stated) | -12.1
CCC(O)CNC(=O)CCc1nnc(C2(c3ccc(Cl)cc3)CCC2)o1 (configuration not stated) | 23.7
CCOc1ccc(/C=C/C(=O)c2ccc(-c3ccccc3)cc2)cc1 | 9.9
O=C(COC(=O)c1ccc(S(=O)(=O)Nc2ccccc2)cc1)NCCC1=CCCCC1 | 19.9
CCOC(=O)c1c(NC(=O)N/N=C/c2ccc(O)c(OC)c2)sc(C(C)=O)c1C | 4.5
CC(=O)N1N=C(c2ccccc2)OC1(C)CC(=O)Nc1ccccc1 (configuration not stated) | 14.6
COc1cc(/C=N/NC(=O)c2cnccn2)ccc1O | 1.9
Cn1ccnc1SCC(=O)Nc1cc(S(=O)(=O)N2CCOCC2)ccc1Cl | 9.8
CC(=O)Nc1cc[n+](CC(=O)c2ccc(Cl)cc2)cc1 | 14.3
O=C(CN1C(=O)C(=O)c2ccccc21)OCN1C(=O)c2ccccc2C1=O | 15.9
O=C(N/N=C/c1ccc(Cl)cc1)c1n[nH]c2c1CCCC2 | 24.4
O=C(NCc1cccs1)C1CCCN1C(=O)Nc1cccc(Cl)c1 (configuration not stated) | 9.6
CSc1ccccc1C(=O)Nc1ccccc1C | 19.0

The last five records of the section before come first, to join the parts.
SMILES | Biofilm kill mix
CC(=O)Nc1cc[n+](CC(=O)c2ccc(Cl)cc2)cc1 | 14.3
O=C(CN1C(=O)C(=O)c2ccccc21)OCN1C(=O)c2ccccc2C1=O | 15.9
O=C(N/N=C/c1ccc(Cl)cc1)c1n[nH]c2c1CCCC2 | 24.4
O=C(NCc1cccs1)C1CCCN1C(=O)Nc1cccc(Cl)c1 (configuration not stated) | 9.6
CSc1ccccc1C(=O)Nc1ccccc1C | 19.0
O=C(Nc1ccccc1)C1C2/C=C\CCCCC21 (configuration not stated) | 6.6
O=C(Cc1ccc(Cl)cc1)NC(=S)Nc1ccccc1N1CCOCC1 | 11.1
Cc1ccc(C(=O)Oc2ccc(N3C(=O)CCC3=O)c(C)c2)cc1 | 8.2
CC1(c2cccc3ccccc23)NC(=O)N(CC(=O)NC2CCS(=O)(=O)C2)C1=O (configuration not stated) | 14.1
S=c1[nH]nc(-c2cc(-c3ccsc3)n[nH]2)n1-c1cccc2ccccc12 | 11.1
CSc1cccc(NC(=S)N(CCC(C)C)C2CCN(C(C)=O)CC2)c1 | 17.1
O=C(Cn1ccc([N+](=O)[O-])n1)Nc1ccccn1 | 6.5
O=C(c1cccc(S(=O)(=O)N2CCc3ccccc32)c1)N1CCN(c2ccccn2)CC1 | 8.9
COc1ccc(C(=O)NNC2=Nc3cccc4cccc2c34)cc1 | 7.2
O=C(Nc1ccc(-c2csc(Nc3cccc(C(F)(F)F)c3)n2)cc1)c1ccccc1 | 14.5
COC(=O)Nc1ccc(S(=O)(=O)N2CCCC(C(=O)N3CC(C)OC(C)C3)C2)cc1 (configuration not stated) | 4.9
COc1ccc(NC(=S)N(CCN2CCOCC2)C2CCN(C(C)=O)CC2)cc1Cl | 21.1
COc1ccc(NC(=O)c2ccc3c(c2)NC(=O)CS3)cc1S(=O)(=O)Nc1ccc(Br)cc1 | 13.3
O=C(Cn1c(=O)oc2ccccc21)Nc1n[nH]c(=S)s1 | 23.7
COc1ccccc1OCC(=O)NCCSCc1ccccc1Cl | -5.7
Cc1c(NC(=O)/C(C#N)=C/c2ccc(-c3cccc(Cl)c3)o2)c(=O)n(-c2ccccc2)n1C | -4.8
COc1ccc(C)cc1NC(=O)C(OC(=O)CNC(=O)c1cccc(F)c1)c1ccccc1 (configuration not stated) | 13.7
c1cc2c(cc1-n1cnnn1)OCO2 | 4.3
NC1=NC[C@H](Cc2ccc(O)cc2)N1CCc1cccc2ccccc12 | 13.2
O=C(NCCO)Nc1ccc2nc(-c3ccco3)c(-c3ccco3)nc2c1 | -1.4
CN(CCc1ccccn1)c1ccc([N+](=O)[O-])cn1 | -32.8
CC(=O)N(Cc1ccc(Br)cc1)c1cccc(C)c1C | 4.0
CSc1ncccc1C(=O)OCc1ccc(Br)cc1 | 23.9
COCCCNC(=O)c1ccc(NC(C)=O)cc1 | 19.6
CCCN1CNC(=S)N(c2ccc(C)cc2C)C1 | 19.5
O=C(CSCc1c(Cl)cccc1Cl)Nc1ccc2c(c1)OCCO2 | 7.7
CCC1(CC)Cc2ccccc2C(=O)N1 | 4.3
COc1cc(OC)cc(C(=O)NCC(=O)OCC(=O)c2cc(C)n(Cc3ccco3)c2C)c1 | 10.0
CCOCCCNC(=O)c1ccc2c(=O)n(CCCOCC)c(=S)[nH]c2c1 | 9.7
O=C(NC1CCCCCC1)C(=S)N1CCOCC1 | 9.2
O=C1/C(=C/c2cccnc2)CC/C1=C\c1cccnc1 | 9.8
O=C(COC(=O)COc1ccc2ccccc2c1)Nc1cc(C(F)(F)F)ccc1N1CCOCC1 | 15.1
OCCNNC(=S)NC1CC2C=CC1C2 (configuration not stated) | 19.5
O=C(CN1C(=O)C2CCCCC2C1=O)OCC(=O)c1ccc(Cl)s1 (configuration not stated) | 5.7
O=S(=O)(NCCC(c1ccc(F)cc1)c1ccco1)c1ccccc1 (configuration not stated) | 6.1
COCCCNC(=O)c1c[nH]c2ccc(S(=O)(=O)N3CCC(C)CC3)cc2c1=O | 10.7
O=C(O)c1ccccc1-n1cccc1C(=O)O | -2.9
O=C(OCc1cccnc1)C1=Cc2ccccc2OC1 | 10.1
CCCC(=O)NNC(=O)CC(=O)Nc1ccccc1C(=O)O | 11.6
C/C(=N/NC(=O)c1ccoc1C)c1ccc(NC(=O)C2CCCC2)cc1 | 16.6
COCCOC(=O)C1=C(C)NC(=O)NC1/C=C/c1ccccc1 (configuration not stated) | 9.5
CN(C)CCCOC(=O)c1sc2ccccc2c1Cl | 15.7
COc1ccc(/C(C)=N/OCC(=O)N=Nc2c(O)[nH]c3ccccc23)cc1 | 5.2
CN(C)S(=O)(=O)c1ccc(/C(O)=C2/C(=O)C(=O)N(Cc3cccnc3)C2c2cccs2)cc1 (configuration not stated) | 16.4
CCC(=O)Nc1cccc(NC(=S)NC(=O)c2ccc(Cl)cc2)c1 | 20.7
Cc1ccc(C(=O)NCC(=O)O)s1 | 12.0
Cc1cccc(C(=O)NC(=S)Nc2ccc(N3CCOCC3)cc2)c1 | -2.7
COCCOC(=O)c1c(NC(=O)CNc2ccc(C)c(F)c2)sc(C(N)=O)c1C | 14.1
Clc1ccc(Cn2ncc3c(NCc4ccccc4)ncnc32)c(Cl)c1 | 19.1
Cc1ccc(CSCC(=O)NCCCN2CCOCC2)cc1 | 12.8
CC(=O)N/C(=C\c1ccc(F)cc1)C(=O)NC(C(=O)O)C(C)C (configuration not stated) | 18.0
CCNC(=O)n1cc(-n2cncn2)c(-c2ccccc2)n1 | 14.6
CC(=O)N1N=C(N)SC1c1cccc([N+](=O)[O-])c1 (configuration not stated) | 10.4
C(=C\c1ccccc1)/C=N/Nc1nc2ccccc2[nH]1 | 2.5
Cc1nc(NC(=S)NC(=O)c2cncc(Br)c2)ccc1Br | 20.9
O=[N+]([O-])c1ccc(C2Oc3ccccc3C3CC(c4ccccc4)=NN32)s1 (configuration not stated) | 15.9
Cc1nc(SCc2ccccc2)c([N+](=O)[O-])[nH]1 | 15.1
COc1ccc(OC)c(C(c2nnnn2Cc2ccco2)N2CCN(C)CC2)c1 (configuration not stated) | 5.5
O=C(/C=C/c1ccc(OC2CSC2)cc1)c1ccc(Cl)cc1 | 4.7
O=S(=O)(Nn1c(O)c(C=C2N=c3ccccc3=N2)sc1=S)c1ccccc1 | 16.8
Next section:
SMILES | Biofilm kill mix
COCCN1CCn2c(nc3cc(NC(=O)Cn4nc(C)c5ccccc5c4=O)ccc32)C1 | 29.0
Cc1c(Br)ccc(NC(=O)COc2ccccc2C(N)=O)c1C | 8.5
O=C1N(Cc2cccnc2)C[C@@H]2C[C@@H](c3ccc(C(F)(F)F)cc3)N3CCC[C@@]123 | 3.8
CCOc1ccccc1N=CC1=C(O)CC(c2ccccc2)CC1=O (configuration not stated) | 14.8
Cc1ccc(C(=O)N/N=C\c2ccc(-c3ccc(Cl)c(Cl)c3)o2)cn1 | 18.4
CN(CC(=O)NC1CCCCCC1)S(=O)(=O)c1cnc[nH]1 | 10.2
CCOc1cc(/C=N\NC(=O)OC)ccc1OC(=O)c1ccco1 | 11.3
COc1ccc(C)cc1-n1c(=O)c2ccccc2c2ccccc2c1=O | 15.7
Cc1cccc(N2C(=O)C(O)=C(C(=O)c3cccs3)C2c2ccccc2)n1 (configuration not stated) | 20.4
Cc1ccc(CNC(=S)Nc2ccc(C)c([N+](=O)[O-])c2)cc1 | 14.1
COC(=O)c1sc2cc(C(F)(F)F)cnc2c1-c1ccccn1 | 9.3
CCOc1cc(/C=N/NC(=O)OC)ccc1OCCSc1ccc(Cl)cc1 | 3.3
COC(=O)CCC(=O)NC(=S)Nc1ccc(S(=O)(=O)Nc2cc(OC)nc(OC)n2)cc1 | 19.5
COc1ccc(N=c2oc3cc(O)ccc3cc2C(=O)Nc2ccccn2)cc1OC | 13.3
COc1ccccc1N(CC(=O)N1CCc2ccccc2C1)S(C)(=O)=O | 21.2
O=C(Nc1ccc(F)cc1)OCCOc1ccc(Br)cc1 | 3.0
COc1cc(C(c2c(C)[nH][nH]c2=O)c2c(C)[nH][nH]c2=O)cc([N+](=O)[O-])c1O | 12.2
C=CCNCC(=O)Nc1ccccc1SCC(=O)Nc1ccsc1C(=O)OC | 6.6
Cc1nnc(SCc2ccccc2)[nH]c1=O | 9.1
O=C(O)C1=C[C@@H](c2ccc(F)cc2)C[C@@H](OCCCCO)O1 | 17.4
CCOc1ccc(OCc2ccc(C(=O)NN)o2)cc1 | 12.7
CC1=NN(c2ccccc2)C(=O)/C1=C\C=C\c1ccccc1 | 21.0
COc1ccccc1/C=C/C=N/n1c(-c2ccccc2)n[nH]c1=S | -1.0
O=C(CN1C(=O)C2C3CC(C(Br)C3Br)C2C1=O)N1CCOCC1 (configuration not stated) | 11.3
Cn1ccnc1SCC(=O)Nc1ccc2c(c1)OC(F)(F)O2 | 13.8
O=C(Cn1nc(CNc2ccc(Cl)cc2)[n+]2c1CCCCC2)c1ccccc1 | 23.3
Cc1nc(N=C(N)N)nc2ccccc12 | 4.0
S=C(NCc1ccccc1Cl)NC1CCCC1 | -6.7
Nc1ncnc(Nc2cccc(F)c2)n1 | 2.6
O=C(Oc1ccccc1-c1csnn1)c1cccs1 | 6.4
Cc1cc(C(=O)Cn2nc(C(=O)O)c3ccccc3c2=O)c(C)n1-c1ccc(F)cc1 | -3.9
O=C(Nc1ccc2c(c1)Cc1ccccc1-2)c1ccc(Br)o1 | 6.2
O=C(Nc1ccc2sccc2c1)c1cccc(N2C(=O)CCC2=O)c1 | 11.6
C=CCNC(=O)COC(=O)CCC(=O)c1cccs1 | 12.1
O=C(NCc1ccc(Cl)cc1)c1ncn[nH]1 | 8.8
O=C(CC1C(=O)NCCN1Cc1ccc(F)c(F)c1)NCCn1cccn1 (configuration not stated) | 9.3
CCOC(=O)C1CCCc2c1[nH]c1ccc(Cl)cc21 (configuration not stated) | 16.2
COC(=O)c1cc(Nc2cc(C)nc3ncnn23)cc(C(=O)OC)c1 | 18.1
NC(=O)CCSC(=S)N1CCOCC1 | 19.2
Cc1ccccc1CN(C)CC(=O)Nc1ccccc1Oc1ccccc1 | 10.5

Gathered by group, the entries above containing a CF3 group (five)
SMILES | Biofilm kill mix
CC(C)(C)C1(O)CC(C(F)(F)F)=NN1C(=O)CCCc1ccccc1 (configuration not stated) | -3.0
O=C(Nc1ccc(-c2csc(Nc3cccc(C(F)(F)F)c3)n2)cc1)c1ccccc1 | 14.5
O=C(COC(=O)COc1ccc2ccccc2c1)Nc1cc(C(F)(F)F)ccc1N1CCOCC1 | 15.1
O=C1N(Cc2cccnc2)C[C@@H]2C[C@@H](c3ccc(C(F)(F)F)cc3)N3CCC[C@@]123 | 3.8
COC(=O)c1sc2cc(C(F)(F)F)cnc2c1-c1ccccn1 | 9.3

More compounds.
SMILES | Biofilm kill mix
O=C1c2ccccc2C(=O)N1CCCc1c[nH]c2ccc(Cl)cc12 | 8.4
O=c1c2ccccc2c(C=NC2CCN(Cc3ccccc3)CC2)c(O)n1Cc1ccc2c(c1)OCO2 | 6.3
Cc1cc(C)c(NC(=O)C2CSCCS2)c(C)c1 (configuration not stated) | 11.0
S=C(NCCCc1ccccc1)Nc1ccc(Cl)cc1 | 16.1
CN(C)S(=O)(=O)c1cccc(C(=O)Nc2ccccc2)c1 | 10.0
Cc1ccc(-c2nn(-c3ccccc3)cc2C(=O)Nc2ccc(C(=O)O)cc2)cc1 | -6.2
CCN(CC)S(=O)(=O)c1ccc(/C=C/C(=O)N(c2ccccn2)C2CCCCC2)cc1 | 10.2
Cc1cc(O)c(C(C)C)cc1N=Cc1cc([N+](=O)[O-])ccc1O | 2.1
O=C(CC1C(=O)NCCN1CC1CCCCC1)NCc1cc(F)ccc1F (configuration not stated) | 12.6
COC(=O)c1ccccc1Sc1snnc1C | 6.9

Some of the entries above in a different format.
| canonical_smiles | Biofilm kill mix |
| --- | --- |
| O=C(Nc1ccc2sccc2c1)c1cccc(N2C(=O)CCC2=O)c1 | 11.6 |
| C=CCNC(=O)COC(=O)CCC(=O)c1cccs1 | 12.1 |

Source: PubChem (PCMD)
